MT1-MMP act inh: inhibitors of human MT1-MMP activation; hit rate 0.061% among 360,000; HT1080 RFP-PRO-GFP cells, GFP/RFP ratio fluorescence, overnight; percent of plate control window, DMSO zero; GFP/RFP ratio change, % at 20 µM; P50281; AID 651647;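 active = GFP/RFP ratio change of at least 30% with cell ATP level not reduced by more than half and red fluorescence within 50% of control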; also: strong numbers were not always called active
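system = RFP-PRO-GFP reporter HT1080 cells | dosing = 20 µM single dose, 1% DMSO | timing = overnight cell settling, then overnight compound exposure, 37 °C, 5% CO2 | read-out basis = GFP/RFP fluorescence ratio | controls = DMSO and RFP-L50D-GFP cell wells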
Rce1 inh: inhibitors of yeast Ras-converting enzyme; hit rate 0.27% among 290,000; Q03530; yeast membranes, quenched prenylated peptide cleavage fluorescence; calls only;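 active = fall in fluorescence gain of 50% or more versus controls, with final raw signal at or below 3038400; inconclusive = same 50% fall but final raw signal above 3038400; inactive = fall in fluorescence gain under 50%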;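 also: plate controls were neutral control wells for no effect and wells lacking membranes for full effect; tested at 10 µM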
HIV Env fusion: blocks HIV Env-driven cell-cell fusion; HeLa-JRFL Env/CEM21 cell fusion, luciferase; inhibition, % at 12.3 µM; hit rate 1.1% among 360,000; AID 651610;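 active = mean replicate inhibition score of at least 50 and every replicate individually at or above 50; inconclusive = only one of the two criteria met; inactive = mean below 50 and not all replicates reaching 50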;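 also: 0% = plate neutral controls and 100% = maraviroc near 300 nM; one replicate is shown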
PABP polyA inh: PABP-poly(A) binding inhibition; PABP-poly(A) RNA binding, fluorescence polarization; inhibition, % at 35 µM; hit rate 1% among 290,000;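 active = 50% or more with normal probe brightness, or confirmed in later tests; inconclusive = above 50% with abnormal brightness, or retests that disagree; inactive = below 50% or failed in later tests; about a fifth of its hits are not listed in these tables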;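 also: calls also rest on retests at 20 µM and on dose response follow-up; controls were probe without protein and protein plus probe with vehicle; some compounds called inactive have numbers as strong as hits; many hits fall short of the cut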
Target sequence (P11940 whole entry, looked up): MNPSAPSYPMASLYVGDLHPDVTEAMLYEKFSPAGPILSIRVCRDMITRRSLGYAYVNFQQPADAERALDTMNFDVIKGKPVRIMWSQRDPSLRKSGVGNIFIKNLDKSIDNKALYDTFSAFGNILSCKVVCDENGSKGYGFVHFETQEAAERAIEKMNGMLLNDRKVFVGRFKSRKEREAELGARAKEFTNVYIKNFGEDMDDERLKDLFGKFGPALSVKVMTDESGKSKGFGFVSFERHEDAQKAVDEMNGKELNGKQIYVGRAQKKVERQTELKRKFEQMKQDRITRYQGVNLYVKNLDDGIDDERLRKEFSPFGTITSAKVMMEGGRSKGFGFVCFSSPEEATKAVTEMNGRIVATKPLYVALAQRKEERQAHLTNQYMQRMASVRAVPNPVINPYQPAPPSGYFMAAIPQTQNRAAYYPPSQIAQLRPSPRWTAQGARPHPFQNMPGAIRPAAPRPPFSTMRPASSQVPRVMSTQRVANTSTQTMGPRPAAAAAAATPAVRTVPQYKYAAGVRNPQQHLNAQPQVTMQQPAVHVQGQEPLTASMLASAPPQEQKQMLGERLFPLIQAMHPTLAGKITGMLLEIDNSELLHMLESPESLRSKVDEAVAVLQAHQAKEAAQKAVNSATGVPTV
eIF4H inh: inhibitors of RNA binding by human eIF4H; inhibition, % at 35 µM; hit rate 0.94% among 290,000; eIF4H fluorescence polarization binding assay; Q15056;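 active = 50% or more with normal probe brightness, or confirmed in later tests; inconclusive = above 50% with abnormal brightness, or retests that disagree; inactive = below 50% or failed in later tests; about a fifth of its hits are not listed in these tables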;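 also: calls also rest on retests at 20 µM and on dose response follow-up; 0% = protein and probe with vehicle and 100% = probe without protein; strong numbers were not always called active; many hits fall short of the cut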
CSC inhib: cancer stem cell inhibition | inhibition, % at 7.5 µM | AID 2717 | cancer stem cell-like cells viability, luminescence | hit rate 1.1% among 300,000;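 active = mean at 75% or more and at least half the replicates too; inconclusive = mean and replicates disagree; tested in HMLE shEcad cells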;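 also: 0% = median of negative and 100% = median of positive control wells; the first replicate is given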
UUG fidelity: yeast start codon fidelity modulation. S. cerevisiae UUG-firefly luciferase reporter, luminescence/redox ratio. hit rate 0.13% among 350,000. activity score, % at 18.7 µM;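 active = replicate mean at a twofold rise or more, about +100% in these data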;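 also: firefly luciferase made from a UUG start codon reports start codon fidelity; reporter light over untreated wells divided by growth signal over untreated wells; some hits fall short of that in this replicate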
PABP polyA inh retest: also measured in PABP polyA inh; calls as there; inhibition, %; compound at 20 µM; confirmation repeats;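 mean of two retest wells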
MT1-MMP act inh RFP: also measured in MT1-MMP act inh; calls as there; RFP signal change, %; measured here: RFP expression control read;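 0 = vehicle wells; hits needed this value within 50% of zero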
* marks the source's active call; other numbers are inactive results; i = inactive; ? = inconclusive; nt = not tested or not shown; + = active, no number. An excerpt, so the mix of outcomes need not match the whole.

SMILES	MT1-MMP act inh	MT1-MMP act inh RFP	Rce1 inh	HIV Env fusion	PABP polyA inh	eIF4H inh	CSC inhib	UUG fidelity	others
COc1ccc(-c2nc(CS(=O)CC(=O)NCc3ccc(Cl)cc3)c(C)o2)cc1 (stereo not drawn)	3	-2	i	4	10	-1	1	-18
COc1ccc(-c2cc(C(=O)NCC(c3ccccc3)N(C)C)c3ccccc3n2)cc1OC (stereo not drawn)	0	-5	i	-83	0	0	-11	6
Cc1ccc(NC(=O)CN(C)S(=O)(=O)c2cccc3cccnc23)c(C)c1	3	3	i	3	16	-2	nt	5
COc1ccc(NC2=NCC(=O)N2Cc2cccs2)cc1	0	-1	i	nt	15	-6	-14	-8
O=C(CN1CCN(C(=O)c2ccccc2)CC1)Nc1ccc(Cl)cc1F	2	-2	i	7	11	-13	-2	-9
COc1ccc(S(=O)(=O)N(C)C)cc1NC(=O)[C@H](Cc1ccccc1)N1C(=O)c2ccccc2C1=O	2	7	i	nt	-14	-12	-9	-17
CCN(C(C)=O)c1cccc2ccccc12	3	6	i	nt	-5	0	-4	-9
COc1cccc(NC(=O)c2ccc(N3C(=O)C4CC=C(C)CC4C3=O)cc2)c1 (stereo not drawn)	-2	-2	i	21	4	-11	1	-7
CCNc1nc(NC(C)(C)C)nc(SC(C(C)=O)C(C)=O)n1	-2	4	i	-88	6	-7	-10	-14
Cn1c(SCC(=O)Nc2ccc(C(N)=O)cc2)nnc1-c1cccs1	-2	2	i	8	1	-2	-1	-13
COc1ccc(-c2csc(N3CCC(C(N)=O)CC3)n2)cc1	-4	-5	nt	-2	nt	nt	-4	-4
NC(=O)COC(=O)CC12CC3CC(CC(C3)C1)C2	0	3	nt	-9	-4	-8	-25	nt
O=C(CC1CCCC1)Nc1ccc(Br)cc1	-1	1	nt	-24	0	-6	-9	-5
CC1(C)COC(/C=C/c2cccc([N+](=O)[O-])c2)=N1	-11	-23	i	-38	-9	-1	-11	nt
COc1ccc(-c2nnc(NC(=O)C3=COCCO3)o2)cc1	1	4	i	4	5	10	5	nt
O=P(O)(O)COc1ccccc1P(=O)(c1ccccc1)c1ccccc1	2	5	i	nt	2	2	-10	-6
CCSc1nnc(NC(=O)Cc2cccc(OC)c2)s1	-1	3	i	-7	0	-5	-24	-7
C=CCN1C(=O)c2ccc(C(=O)N3CCN(S(=O)(=O)c4cccc(F)c4)CC3)cc2C1=O	-1	-1	i	-17	nt	nt	-13	nt
O=C(N1CCCC1)C12CC3CCC(CC(C3)C1)C2	-1	-9	i	25	-3	-6	-17	-15
COc1cccc(NC(=O)c2ccc3c(c2)CCCC3)c1	-3	0	i	-176	-1	-14	42	-28

Some of these compounds in order of length of the SMILES, falling.
SMILES	MT1-MMP act inh	MT1-MMP act inh RFP	Rce1 inh	HIV Env fusion	PABP polyA inh	eIF4H inh	CSC inhib	UUG fidelity	others
C=CCN1C(=O)c2ccc(C(=O)N3CCN(S(=O)(=O)c4cccc(F)c4)CC3)cc2C1=O	-1	-1	i	-17	nt	nt	-13	nt
COc1ccc(-c2nc(CS(=O)CC(=O)NCc3ccc(Cl)cc3)c(C)o2)cc1 (stereo not drawn)	3	-2	i	4	10	-1	1	-18
O=P(O)(O)COc1ccccc1P(=O)(c1ccccc1)c1ccccc1	2	5	i	nt	2	2	-10	-6
CC1(C)COC(/C=C/c2cccc([N+](=O)[O-])c2)=N1	-11	-23	i	-38	-9	-1	-11	nt
COc1ccc(-c2csc(N3CCC(C(N)=O)CC3)n2)cc1	-4	-5	nt	-2	nt	nt	-4	-4
O=C(N1CCCC1)C12CC3CCC(CC(C3)C1)C2	-1	-9	i	25	-3	-6	-17	-15

(list continues)
SMILES	MT1-MMP act inh	MT1-MMP act inh RFP	Rce1 inh	HIV Env fusion	PABP polyA inh	eIF4H inh	CSC inhib	UUG fidelity	others
COC(=O)CN(c1cc(C(F)(F)F)ccc1Cl)S(C)(=O)=O	0	4	nt	nt	1	-7	nt	7
O=c1cc(CNCCCO)c2ccccc2[nH]1	-1	2	i	nt	3	1	3	-17
O=C(Nc1ccccc1)NC1CCN(Cc2ccccc2)CC1	-3	3	i	3	3	-5	-6	nt
COC(=O)C1C(c2ccccc2)NC(=O)NC1(O)C(F)(F)Cl (stereo not drawn)	0	5	nt	9	32	-8	-2	nt
CCCn1c(CN2CCN(C)CC2)nc2ccccc21	1	2	nt	2	-6	-1	2	-16
CC(=O)N/C(=N/c1nc(C)cc(C)n1)Nc1ccc(F)cc1F	-3	-3	i	9	1	3	-4	-7
Cc1noc(C)c1COc1ccc(C(=O)NCCc2ccccn2)cc1	4	7	i	1	-7	4	4	nt
CNC(=O)CSc1nnc(C2CC2)n1-c1ccccc1	-2	-2	i	-1	-8	-6	-9	nt
Nn1c(=O)c2ccccc2n2c(SCc3ccccc3)nnc12	-3	-2	i	nt	-17	-2	-2	-3
O=C(OCc1nnc(-c2ccccc2)o1)c1cc(S(=O)(=O)N2CCOCC2)c(Cl)cc1Cl	2	2	nt	nt	10	10	17	-23
CCN(CC)S(=O)(=O)c1cc(NC(=O)COC(=O)CCC(=O)c2cccs2)ccc1C	-2	4	i	8	2	-4	-4	nt
C[C@]12CC[C@H](O)CC1=CCC1C2CC[C@@]2(C)C1CC[C@@H]2NC(=O)[C@@H](N)Cc1cnc[nH]1 (stereo partly drawn)	4	6	nt	11	nt	nt	nt	-6
Cc1cccc(NC(=O)c2cccc(NC(=O)c3ccco3)c2)c1	5	1	nt	-1	nt	nt	nt	-3
Cc1cc(C)c2nc3sc(C(=O)N4CCOCC4)c(N)c3cc2c1	-21	-8	i	-356	8	-8	nt	-32
O=C(N/N=C/c1c[nH]c2ccccc12)c1cc(-c2ccccc2)n[nH]1	11	5	i	41	-10	0	21	-16
C[C@@]12C(=O)Nc3ccc(Br)cc3C(=O)N1[C@H]1c3cc(Cl)ccc3OC[C@@H]1[C@@H]2c1ccccc1	-37	-25	nt	nt	nt	nt	6	-2
CCCCNc1nc(-c2ccccc2)cc(C(F)(F)F)c1C(N)=O	1	-7	i	nt	4	8	7	3
CCOc1cccc(/C(O)=C2/C(=O)C(=O)N(CCOC)C2c2ccco2)c1 (stereo not drawn)	2	3	i	-23	11	17	3	-6
O=C(NCC1CCCO1)c1cccc(NC(=O)c2ccco2)c1 (stereo not drawn)	8	5	i	nt	-2	-9	-14	-14
Cc1ccc([C@H]2C(C(=O)O)=CC[C@@H](c3ccc(C(C)C)cc3)N2S(=O)(=O)c2ccc(C)cc2)cc1	-4	3	nt	5	nt	nt	45	-9

In the list so far, 2 have a CF3 group:
SMILES	MT1-MMP act inh	MT1-MMP act inh RFP	Rce1 inh	HIV Env fusion	PABP polyA inh	eIF4H inh	CSC inhib	UUG fidelity	others
COC(=O)CN(c1cc(C(F)(F)F)ccc1Cl)S(C)(=O)=O	0	4	nt	nt	1	-7	nt	7
CCCCNc1nc(-c2ccccc2)cc(C(F)(F)F)c1C(N)=O	1	-7	i	nt	4	8	7	3

(list continues)
SMILES	MT1-MMP act inh	MT1-MMP act inh RFP	Rce1 inh	HIV Env fusion	PABP polyA inh	eIF4H inh	CSC inhib	UUG fidelity	others
CN(C)c1nc(N/N=C/c2c[nH]c3ccccc23)nc(N2CCOCC2)n1	-5	-5	i	3	6	5	3	nt
Cc1cc(N2CCN(C(c3ccccc3)c3ccccc3)CC2)n2ncnc2n1	-18	-2	+	-32	15	-11	-10	8
COCn1c(COc2ccccc2)nc2ccccc21	-4	0	nt	-16	-7	-2	7	-28
COc1cccc(C(C(=O)NC(C)(C)C)N(CCC(C)C)C(=O)CCC(=O)Nc2cc(C)on2)c1OC (stereo not drawn)	-2	0	i	7	-1	8	-13	nt
Cc1c(C(=O)Nc2cccc(Cl)c2)c2ccccn2c1CCc1ccncc1	-25	-17	nt	23	85*	?	nt	nt	PABP polyA inh retest=96*
O/N=C(/CCc1ccccc1)c1ccc2c(c1)OCCO2	4	-2	i	-4	-9	-13	10	2
CCOC(=O)c1sc(NC(=O)CSc2n[nH]c(CC)n2)nc1C	-1	0	i	15	2	-4	-9	nt
CC1(C)OC(=O)C(=Cc2ccc[nH]2)C(=O)O1	2	5	i	-3	-8	-4	-3	-12
CCCCSc1cnn(-c2ccccc2)c(=O)c1SCCCC	-7	-16	i	27	0	2	3	-4
O=C(NC1CCCCC1)C(c1cccnc1)N(C(=O)CCl)c1ccccc1Cl (stereo not drawn)	-7	-7	i	46	43	-6	24	nt
O=C1CCC[C@@H]2C[C@@]3(C[C@@H]4CCN1[C@H]24)Nc1cc([N+](=O)[O-])ccc1NC3=NC1CCCCC1	-10	3	nt	-3	nt	nt	nt	13
O=C(NCc1nnc(SCC(=O)N2CCC(Cc3ccccc3)CC2)o1)c1ccco1	-1	-4	i	13	2	-3	25	nt
O=C(CSCc1ccccc1)Nc1ccc2c(c1)C(=O)NC2=O	-4	-4	i	1	-6	-3	14	nt
CCCn1c2ccccc2c2cnn(CC(=O)NCCN(CC)CC)c(=O)c21	1	-4	i	-1	-15	0	-3	-7
CN1CCN(c2ccc(C(F)(F)F)cc2NC(=O)Nc2ccccc2)CC1	-4	-2	i	22	-10	3	15	-12
Cc1ccc(C(=O)Nc2ncc(C)s2)o1	6	1	nt	-58	-2	-3	8	-32
Cc1ccc(S(=O)(=O)N2CCOCC2)cc1NCC(=O)Nc1ccc(OC(F)(F)F)cc1	3	-2	nt	6	nt	nt	4	nt
[O-]/[N+](=C\c1ccc(F)cc1)c1ccccc1	1	2	i	-81	-1	-2	-12	-20
CC1=C(C(=O)OCC2CCCO2)C(c2ccccc2)NC(=O)N1 (stereo not drawn)	5	2	nt	nt	-2	5	-19	-3
O=C(CNC(=O)c1cccnc1)N/N=C/c1ccc(O)cc1O	1	-6	i	16	13	29	23	-10

By substructure, those above with bromine.
SMILES	MT1-MMP act inh	MT1-MMP act inh RFP	Rce1 inh	HIV Env fusion	PABP polyA inh	eIF4H inh	CSC inhib	UUG fidelity	others
O=C(CC1CCCC1)Nc1ccc(Br)cc1	-1	1	nt	-24	0	-6	-9	-5
C[C@@]12C(=O)Nc3ccc(Br)cc3C(=O)N1[C@H]1c3cc(Cl)ccc3OC[C@@H]1[C@@H]2c1ccccc1	-37	-25	nt	nt	nt	nt	6	-2

(cont.)
SMILES	MT1-MMP act inh	MT1-MMP act inh RFP	Rce1 inh	HIV Env fusion	PABP polyA inh	eIF4H inh	CSC inhib	UUG fidelity	others
CN1CCCC(OC(=O)c2ccc(S(=O)(=O)N(C)C)cc2)C1 (stereo not drawn)	0	1	i	-1	-6	-5	-13	nt
O=C(Nc1ccccc1)Nc1nnc([C@@H]2C[C@H](O)[C@@H](CO)O2)s1	-2	2	nt	15	nt	nt	nt	-3
CC(C)(C)C(=O)OCOC(=O)[C@@H]1N2C(=O)[C@@H](N=CN3CCCCCC3)[C@H]2SC1(C)C	5	11	nt	28	nt	nt	-2	3
CC1CCN(S(=O)(=O)c2ccc(Cl)cc2Br)CC1	-2	-3	i	-11	2	0	-5	nt
O=C(COc1cccnc1[N+](=O)[O-])c1ccc(Cl)s1	-21	8	i	-84	28	40	-6	-2
CCOc1ccc(CN2CCN(CCCc3ccccc3)CC2CCO)cc1 (stereo not drawn)	1	0	i	10	-11	-3	0	-1
COc1ccc(C(=O)O/N=C(\N)Cc2ccc([N+](=O)[O-])cc2)c(OC)c1	1	1	i	-3	29	34	-3	nt
Cc1ccc(CCNC(=O)C2CCN(S(=O)(=O)c3cccc4nonc34)CC2)cc1	0	-2	i	nt	16	8	-10	-12

Screens deposited in PubChem by several laboratories.
